# HCMV UL50-53 inh: disrupts HCMV UL50-UL53 complex binding; AID 1918969; HTRF UL50-UL53 interaction, normalized percent inhibition; inhibition, % (test concentration not listed); actives 0.15% (n = 190,000);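 active = both replicates at 50% or more, plus weaker picks with an unusually low signal ratio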;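 note: stock transfer was 100 nL into about 20 µL; 0% = negative control wells and 100% = wells with untagged competitor protein; inactives centre near -12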
# Sa growth inh: blocks Staphylococcus aureus growth; S. aureus RN4220 growth, OD600, 20 h, 42 °C; active compounds read low; relative growth, % (test concentration not listed); actives 0.53% (n = 170,000); AID 720641;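 active = growth at 42 °C up to 50% and 20 or more points under that at 30 °C, or under 10% at both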;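 note: 300 nL library stock went into each well; scaled to the means of positive and negative controls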
# GIV-Gai inh: blocks GIV peptide binding to rat Galpha-i3. P08753. actives 0.42% (n = 210,000). percent of control (FP), % (concentration not given with the values). Galpha-i3/FITC-GIV peptide fluorescence polarization, 90 min; active compounds read low; scaled: aluminum fluoride 0%, vehicle 100%;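 active = replicate mean at 85% of control or lower, very high polarization wells dropped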;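 note: wells of about 15 µL received 100 nL stock; the first replicate is given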
# Target sequence (P08753 whole entry, looked up): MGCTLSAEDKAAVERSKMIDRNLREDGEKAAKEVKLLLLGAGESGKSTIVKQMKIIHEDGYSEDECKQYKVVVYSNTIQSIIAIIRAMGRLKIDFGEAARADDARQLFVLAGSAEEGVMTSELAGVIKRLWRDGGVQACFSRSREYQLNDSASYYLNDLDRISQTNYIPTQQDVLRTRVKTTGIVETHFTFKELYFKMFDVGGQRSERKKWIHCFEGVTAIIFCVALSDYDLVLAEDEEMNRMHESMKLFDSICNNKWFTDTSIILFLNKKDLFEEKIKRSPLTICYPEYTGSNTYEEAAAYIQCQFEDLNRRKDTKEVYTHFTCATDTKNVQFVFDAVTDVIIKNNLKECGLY
# Sa growth inh second temp: also measured in Sa growth inh; calls as there; relative growth, %; measured here: growth at 30 °C;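 optical density after 20 h as mean of two plates; 100% = untreated growth and lower means inhibition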
# * = called active by the depositor; / = not tested or not shown; & = joins results of further samples.
SMILES,HCMV UL50-53 inh,Sa growth inh,Sa growth inh second temp,GIV-Gai inh
CCCCNS(=O)(=O)c1ccc(NC(=O)c2c(-c3ccccc3)noc2C)cc1,4.6,117.8,100.6,109.9
COc1cc(-c2nc(Cn3nnc(C(=O)Nc4cc(C)cc(C)c4)c3C)c(C)o2)cc(OC)c1OC,1.0,104.9,95.2,103.5
O=C(COC(=O)c1ccc(S(=O)(=O)N2CCCC2)cc1)Nc1ncc(Cl)cc1Cl,-22.5,88.1,78.9,/
CCN(Cc1ccccc1)C(=O)c1cc2c(=O)[nH]c3ccc(C)cc3c2s1,-13.0,101.3,85.6,103.1
CN1CCN(S(=O)(=O)c2ccc(NN)nc2)CC1,-11.9,66.2,70.6,/
Cc1cccc(NC(=O)c2cc(S(=O)(=O)N3CCCCC3)c[nH]2)c1C,/,94.7,91.1,100.4
O=C(c1cc2nc(-c3cccs3)cc(C(F)(F)F)n2n1)N1CCN(c2ccccc2)CC1,-22.2,/,/,91.3
CCOC(=O)c1cc2n(n1)CC(C)(C(=O)NC1CCCCC1)N(c1ccc(C)c(F)c1)C2=O (stereo not given),-11.0,/,/,100.1
Cc1ccc(NC(=O)CN(CCc2ccccc2)S(=O)(=O)c2ccccc2)c(C)c1,-28.5,93.1,82.4,106.2
C(=N\n1cnnc1)/c1ccc(-c2ccccc2)cc1,-30.0,87.8,109.1,/
CCC(=O)Nc1ccc(C)cc1-c1nnc(SCC(=O)Nc2cc(C)ccc2C)[nH]c1=O,-9.5,/,/,100.2
COc1ccc(-c2nnc(SCC(=O)Nc3ccc4[nH]c(=O)[nH]c4c3)n2C2CCCCC2C)cc1 (stereo not given),-2.2,90.7,63.0,/
CC(=O)Nc1ccc(Nc2cc(C(F)(F)F)nc3ncnn23)cc1,15.2,97.5,75.0,102.0
O=c1ccc(-c2ccccc2)nn1Cc1ccncc1,-71.4,90.3,82.7,101.2
CCn1c(SCc2cccc(Br)c2)nnc1-c1nonc1NC(C)=O,10.1,98.2,88.2,102.0
CCCCOC(=O)Nc1ccccc1C(N)=O,-10.4,92.9,92.2,96.9
CC(=O)Nc1nc2ccccc2nc1Cl,-29.0,91.0,97.5,/
CS(=O)(=NS(=O)(=O)c1ccc(Cl)cc1)c1ccccc1 (stereo not given),-4.6,110.8,84.5,107.1
CSC(=S)N(C)c1ccccn1,-27.6,91.2,91.7,/
CCOC(=O)c1cccc(NC(=O)c2cc3c(=O)n(C)c4ccccc4c3n2C)c1,-37.1,114.0,83.1,103.3

# Whole records, quoted from the list. Values in the order: HCMV UL50-53 inh, Sa growth inh, Sa growth inh second temp, GIV-Gai inh
# Record of O=c1ccc(-c2ccccc2)nn1Cc1ccncc1 : -71.4, 90.3, 82.7, 101.2
# Record of C(=N\n1cnnc1)/c1ccc(-c2ccccc2)cc1 : -30.0, 87.8, 109.1, /

# Only Sa growth inh second temp and GIV-Gai inh, for 3 of the compounds above:
structure	Sa growth inh second temp	GIV-Gai inh
Cc1cccc(NC(=O)c2cc(S(=O)(=O)N3CCCCC3)c[nH]2)c1C	91.1	100.4
O=C(c1cc2nc(-c3cccs3)cc(C(F)(F)F)n2n1)N1CCN(c2ccccc2)CC1	/	91.3
CCOC(=O)c1cc2n(n1)CC(C)(C(=O)NC1CCCCC1)N(c1ccc(C)c(F)c1)C2=O (stereo not given)	/	100.1

# Remaining list, next part.
SMILES,HCMV UL50-53 inh,Sa growth inh,Sa growth inh second temp,GIV-Gai inh
Nc1ncc(C(O)(C(F)(F)F)C(F)(F)F)s1,-39.5,83.5,92.3,/
Cc1ccc(C)c(CNC(=O)C2CCN(c3nc4ccccc4nc3C(F)(F)F)CC2)c1,/,75.8,87.9,100.0
Cc1nc2c(c(C)nn2-c2ccccc2)c(C)c1CCC(=O)NCCCN1CCC(Cc2ccccc2)CC1,11.3,/,/,105.7
COc1cccc(N2CCN(C(=O)CN3CCSc4ccccc43)CC2)c1,-34.8,96.8,93.0,105.0&109.8
O=C(Nc1ccccc1F)C1CCCC1,-5.5,103.8,92.7,106.5
COc1ccc(C2c3cccn3CCN2S(=O)(=O)c2ccc([N+](=O)[O-])cc2)cc1 (stereo not given),/,119.1,86.5,100.8
CNCc1ccc(-c2ccccc2Cl)o1,0.5,/,/,102.8
O=C(CSc1ccc2c(c1)OCCO2)c1ccc[nH]1,0.4,112.7,93.3,/
COc1ccc2nc3oc(C(=O)Nc4cccc(SC)c4)cc3cc2c1,-23.3,94.8,90.4,99.2
O=C1CSC(=Nc2ccccc2)N1Cc1ccccc1,/,100.5,82.1,106.2
CC(OC(=O)/C=C/c1ccc(Br)o1)C(=O)Nc1ccc2c(c1)OCO2 (stereo not given),0.6,95.3,96.5,/
Cc1cccc(CSc2nc3c([nH]c4ccccc43)c(=O)n2C)c1,/,102.4,86.4,104.9
N#CC(C(=O)NCCc1ccccc1)c1nc2ccccc2nc1N1CCOCC1 (stereo not given),-9.5,102.1,95.4,86.0
Cc1c(C(=O)N(Cc2ccccc2)C(C)C)cnn1-c1ccccc1,-12.4,94.8,80.9,100.6
Cc1ccc(C(=O)N2CCN(c3ncnc4c3cnn4-c3ccccc3)CC2)cc1,-6.8,104.3,91.8,98.6
O=C(O)C1C2C=CC3(CN(Cc4cccc(Cl)c4Cl)C(=O)C13)O2 (stereo not given),7.5,108.5,76.3,95.2
Cc1cccc(-c2noc(CNC(=O)C(C)(C)Oc3ccc(Cl)cc3)n2)c1,/,89.1,82.8,118.1
COC(=O)/C=C1/N/C(=N\c2nc(C)cc(C)n2)N(c2ccc(C)c(C)c2)C1=O,-8.8,86.2,74.3,104.3
CN1CCN(CCNC(=O)c2ccc(-n3ccc4ccccc43)s2)CC1,-39.5,111.9,83.8,102.8
Cc1ccc2oc(=O)c3cnn(CC(=O)N4CCc5ccccc5C4)c3c2c1,-13.0,109.8,91.7,105.2

# Next part, starting with the last 3 of the part before.
SMILES,HCMV UL50-53 inh,Sa growth inh,Sa growth inh second temp,GIV-Gai inh
COC(=O)/C=C1/N/C(=N\c2nc(C)cc(C)n2)N(c2ccc(C)c(C)c2)C1=O,-8.8,86.2,74.3,104.3
CN1CCN(CCNC(=O)c2ccc(-n3ccc4ccccc43)s2)CC1,-39.5,111.9,83.8,102.8
Cc1ccc2oc(=O)c3cnn(CC(=O)N4CCc5ccccc5C4)c3c2c1,-13.0,109.8,91.7,105.2
Cc1cc2ncn(CC(O)COCC3CC=CCC3)c2cc1C (stereo not given),2.8,100.7,89.8,104.8
CCOC(=O)c1ccc(COc2nc3ccccc3nc2-c2ccccc2NC(C)=O)cc1,-0.8,108.5,88.4,100.4
O=C(c1ccc2c(c1)N(CC(=O)N1CCc3ccccc31)C(=O)C1CCCCN21)N1CCCCC1 (stereo not given),-40.9,/,/,107.9
CN(C)c1nc(SCCO)nc(N(C)C)n1,0.2,97.0,97.1,97.5

# Source: PubChem BioAssay (ICCB-Longwood Screening Facility, Harvard Medical School)
